# RE007 growth inh – qHTS Assay for Inhibitors of the HIV-1 protein Vpr. S. pombe RE007 Vpr strain, BacTiter-Glo ATP luminescence, 24 h; control for the full effect not named in the record. Potency, µM (doses to about 92.2 µM), without a hit: at the top dose activity change, negative = less growth. 360,000 tested, 0.21% active; active = well fitted falling curve with a large enough effect; inconclusive = small, poorly fitted or top-dose-only effect; inactive = no such curve, though single readings can be large or run the other way;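 further: nearly all actives have a fitted effect of over 50% in size; the assay follows cell death caused by Vpr and the record does not say whether a fall means rescue or toxicity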
#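 Fission yeast strain RE007, carrying one chromosomally integrated HIV-1 vpr copy, was seeded at OD 0.01 in PMG+AL medium with 23 nL pinned compound. After 24 h at 30 °C and 99% humidity, viability was read by BacTiter-Glo luminescence.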
# 2A StopGo – High Throughput Screening for Foot and Mouth Disease Virus Antivirals. human cells with a luciferase reporter of 2A StopGo recoding; control for the full effect not named in the record. Potency, µM (top dose mostly 57.9 µM), without a hit: at the top dose signal change, negative = less light. 410,000 tested, 1.2% active. AID 1159524, 2015; active = well fitted falling curve with a large enough effect; inconclusive = small, poorly fitted or top-dose-only effect; inactive = no such curve, though single readings can be large or run the other way; tested in HEK293T cells; further: nearly all actives have a fitted effect of over 45% in size; luciferase light after 4 h
# * = called active by the depositor; ? = inconclusive; [ ] = dose if it differs, or a comment. On the % scale 0 is the no-effect control and ±100 the full control effect; potency means the concentration at half of the fitted maximal effect. Only part of the results is shown; count on the stated rates, not on these rows.
Molecule | RE007 growth inh | 2A StopGo
O=C(O)c1ccc(COc2ccc([N+](=O)[O-])cc2Cl)cc1 | 1% | 47%[activator]
CC1(C(=O)Nc2ccc3c(c2)OCCO3)CCN1Cc1ccc2ccccc2c1 (stereo not given) | 0%[18.4 µM] | 0%
CCOc1ccc(Cl)cc1-c1cc(C(=O)Nc2ccc(C(C)C)cc2)[nH]n1 | 2% | -9%
CCc1nc2ccc(C(=O)NCCOc3ccc(OC)cc3)cn2c1N(C)C(=O)Cc1ccccc1 | 1%[18.4 µM] | -1%
CCOC1CCCc2oc(-c3ccsc3)c(-c3cnc(OC)nc3)c21 (stereo not given) | -19% | -22%
NC(CCc1ccccc1)c1csc(Nc2ccccn2)n1 (stereo not given) | 2% | -11%
O=C(NCc1ccco1)c1cccc2c1C(=O)c1ccc(N3CCC(N4CCCCC4)CC3)cc1S2(=O)=O | -9% | -21%
CNC(C)C(=O)NC(C(=O)N1CCCC1C(=O)Nc1ccc2[nH]ccc2c1)C(C)C (stereo not given) | -5% | -24%
COC(=O)C[C@@H]1C[C@@H]2c3cc(NC(=O)Cc4ccncc4)ccc3O[C@@H]2[C@@H](CO)O1 | 26% | ?
CC(=O)Nc1ccc(S(=O)(=O)NCCc2ccc3c(c2)OCCO3)cc1 | 1% | -10%

Molecule | RE007 growth inh | 2A StopGo
CCCCn1nnnc1C(C1CC1)N1CCC2(CC1)C(=O)NCN2c1ccccc1 (stereo not given) | 4% | -13%
O=C(CS(=O)(=O)c1ccc(Cl)cc1)N1CCN(c2ccccc2)CC1 | -9% | -10%
COc1ccc(-c2cc(NC=O)c3ncc(-c4ccc(OC)c(OC)c4)n3c2)c(OC)c1 | -3%[18.4 µM] | -36%
COc1ccc(CN2C(=O)C(CC(=O)NCCCN(C)C)CC(C(=O)N3CCOCC3)=C2C)cc1 (stereo not given) | -6% | -18%
CC1=C(C(=O)N(C(C)C)C(C)C)CC(CC(=O)NCC2CCCCC2)C(=O)N1Cc1ccc(F)cc1 (stereo not given) | -17% | -3%
CC1(C(=O)NS(=O)(=O)Cc2ccccc2)CCN1C(=O)c1ccc(C2CCCCC2)cc1 (stereo not given) | 9% | -9%
COc1ccc(-c2ccc(C(=O)Nc3ccc(Cl)cc3)c3occc23)c(C)c1 | -17%[18.4 µM] | 15%
COc1ccc(NC(=O)/C(N=Nc2cccc(S(=O)(=O)Nc3ccc(SC(F)F)cc3)c2)=C(\C)O)cc1 | 0% | 16%
CCc1nc2ccc(C(=O)N(C)Cc3ccco3)cn2c1N(C)Cc1ccc(OC)cc1 | -18% | -7%
CC(C)NC(=O)Nc1ccc2c(c1)C(=O)N([C@H](C)CO)C[C@H](C)[C@@H](CN(C)C(=O)NC(C)C)O2 | 5% | 0%

Molecule | RE007 growth inh | 2A StopGo
CN1CCN(c2ncnc3c2ncn3[C@H]2CN(Cc3ccccc3)C[C@@H](CO)O2)CC1 | 1% | -8%
Cc1cn([C@H]2C[C@H](O)[C@@H](CCC(=O)NCC(c3ccccc3)c3ccccc3)O2)c(=O)[nH]c1=O | 9% | -16%
Cc1[nH]c2ccccc2c1C(=O)C(=O)NCc1ccncc1 | 0% | -20%
Nc1nc(N)c2c(ccc3c2ccn3Cc2cccc([N+](=O)[O-])c2)n1 | 5.6µM* | ?
COC(=O)C1=CN(c2ccc3c(c2)OCO3)C(N)=C(C#N)C1c1ccc(-c2ccccc2)cc1 (stereo not given) | -3% | -9%
Fc1cccc(Cc2c(-c3cccc(Br)c3)nc3ccc(Cl)cn23)c1 | -8% | 29%
COc1cc(C)ccc1S(=O)(=O)NC(=O)C1(C)CCN1C(=O)Cc1ccccc1Cl (stereo not given) | 2%[18.4 µM] | -12%
COc1cccc(C=Cc2nccc3ccccc23)c1OC | -24% | 0%
CC(C)=CCC[C@H](C)CC1Cc2[nH]c(=S)[nH]c(=O)c2C(c2ccc(F)cc2)O1 (stereo not given in full) | 1% | 0%
Cc1cccnc1C(NC(=O)C1CCN(Cc2ccc(Cl)cc2)CC1)c1ccc(F)cc1 (stereo not given) | -2% | -22%

Molecule | RE007 growth inh | 2A StopGo
C(=C\c1ccccc1)/CN1CCN(C(c2cccs2)c2nnnn2C2CCCC2)CC1 (stereo not given) | -17% | -9%
CC(C)S(=O)(=O)N1CCCC(c2cc(C(=O)Nc3ccc(F)c(Cl)c3)no2)C1 (stereo not given) | 6% | 2%
Cc1ccc(CN2C(=O)C(C)Oc3ccc(C)cc32)cc1 (stereo not given) | -8% | -19%
CCOC(=O)C1(C)CCN1C(=O)c1ccc(OC)c(F)c1 (stereo not given) | 9%[18.4 µM] | 8%
CC1(c2nnc(Cc3ccccc3)o2)CC(c2ccc(C#N)cc2)=NO1 (stereo not given) | ? | -7%
CC(C)C[C@H]1CN(CCCC[C@H]2CNC(=O)C(=O)N2Cc2ccccc2)C(=O)C(=O)N1CCc1ccc(O)cc1 | -2% | -25%
Cc1ccc(NC2CCCN(C(=O)c3nonc3C)C2)cc1C (stereo not given) | -2% | -10%
C/C(=N\NC(=O)c1nnn(-c2nonc2N)c1CSc1ccc(C)cc1)c1cccnc1 | -8% | -19%
CCc1nc2ccc(C(=O)NCCCn3ccnc3)cn2c1N(C)CCCc1ccccc1 | ? | -3%
O=C(Nc1ccccn1)C1CCN(C(=O)c2ccc(Cl)cc2)CC1 | -4% | -11%

Molecule | RE007 growth inh | 2A StopGo
CCOC(=O)C1(C)CCCN(C(=O)c2ccccc2)C1 (stereo not given) | 10% | 2%
CCOC(=O)C1=CCC2C(=O)N(C3CCCCC3)C(=O)C12 (stereo not given) | -6% | -24%
F[B-](F)(F)c1cc2cc(Br)ccc2s1 | -28% | -13%
CC1CCN(S(=O)(=O)c2ccc3c(c2)C(Cl)(Cl)C(=O)N3)CC1 | -17% | -11%
COc1ccc2c(c1)Cc1cc(NC(=O)c3ccccc3-c3ccccc3C(=O)O)ccc1-2 | 6% | 6%
CCc1nc2ccc(C(=O)N3CCCC(C(N)=O)C3)cn2c1N(CCC(C)C)CCN(C)C (stereo not given) | -19% | -6%
CCOC(=O)[C@]12CCCC=C1N(Cc1ccc(Cl)cc1Cl)C(=O)[C@H](CC(=O)N1CCN(C(=O)C3CC3)CC1)C2 | 5% | 0%
CC(OC(=O)C1=COCCO1)C(=O)NC1CCCC(C)C1C (stereo not given) | -5% | -21%
CCCS(=O)(=O)NC(=O)C1(C)CCCN(C(=O)c2cncc(Br)c2)C1 (stereo not given) | 6% | -3%
CN(Cc1cccc(-c2ccncc2)c1)C(=O)Oc1ccc([N+](=O)[O-])cc1 | -16% | 22µM*

Molecule | RE007 growth inh | 2A StopGo
C[C@H](NC(=O)c1ncn2c1C(=O)N[C@@H](C)C2)C(=O)OC(C)(C)C | 10% | -21%
C[C@H](CO)N1C[C@H](C)[C@H](CN(C)S(=O)(=O)c2ccccc2)OCc2cnnn2CCCC1=O | 22% | -20%
COc1cc(-c2cnc3c(NC=O)cc(-c4ccc(S(C)(=O)=O)cc4)cn23)cc(OC)c1OC | -20% | -17%
COC(=O)c1ccccc1S(=O)(=O)N1CCC(C(=O)NCc2ccccn2)CC1 | -11% | 0%
O=C(NN=Cc1ccc2c(c1)CCC2)c1ccccc1[N+](=O)[O-] | -5% | 2%
OC[C@@H]1CN(Cc2ccc(-c3ccccc3)cc2)C[C@H](n2cnc3c(NCc4ccco4)ncnc32)O1 | 1% | 32µM*
C#CCNC(=O)C1=C[C@@H](c2ccc(C#C)cc2)C[C@@H](OCc2ccc(CO)cc2)O1 | -8% | 12%
O=C(CC1c2cc(F)ccc2C=C(c2ccsc2)N1c1ccc(C#CCCO)cc1)c1ccco1 (stereo not given) | -2% | -16%
CC(C)NC(=O)C1(C)CN(S(C)(=O)=O)CC(=O)N1C1CCN(Cc2ccccc2)CC1 (stereo not given) | 5% | -16%
CC(Sc1nc2ncc(Cl)cc2[nH]1)C(=O)Nc1ccccc1[N+](=O)[O-] (stereo not given) | 14% | ?

mol | RE007 growth inh | 2A StopGo
CC(=O)Nc1ccc(OCCCN2CCC(C(O)(c3ccccc3)c3ccccc3)CC2)cc1 | -20% | -21%
COc1ccc(NC(=O)c2cc(-c3cc(C)cs3)[nH]n2)cc1OC | 5% | 3%
NC(c1ccccc1)c1csc(Nc2ccc(C(=O)NCCO)cc2)n1 (stereo not given) | -9% | -16%
O=C(Nc1ccccc1F)c1nc[nH]c1C(=O)NCc1ccccc1 | -29% | 0%
Cn1c(N)c(C(=O)CNC2CCCCC2)c(=O)n(C)c1=O | -6% | -14%
CCCCn1nnnc1C(c1ccccc1)N1CCN(c2ccc(C(F)(F)F)cn2)CC1 (stereo not given) | 10% | -24%
C=CCOC(=O)C1=C[C@@H](c2ccc(C(F)(F)F)cc2)C[C@@H](OCc2ccc(CO)cc2)O1 | 0% | -12%
CCOC(=O)[C@]12CCC=C1N(Cc1ccc(Cl)cc1Cl)C(=O)[C@H](CC(=O)NCc1ccc(C)o1)C2 | 0% | -13%
C[C@H]1CN([C@@H](C)CO)C(=O)c2cc(C#CC3(O)CCCC3)cnc2O[C@H]1CN(C)C(=O)C1CC1 | 10% | -8%
CCN(CC(=O)Nc1ccc(OC)cc1)C(=O)C1CC(=O)N(Cc2ccccc2)C1 (stereo not given) | 11% | -9%
CC(C)C[C@@H](CN1CCC[C@@H]1CN1C(=O)C(=O)NC[C@@H]1Cc1ccccc1)N1C[C@H](Cc2ccc(O)cc2)N(CC2CCCCC2)C(=O)C1=O | -5% | -10%
CCN(CC(=O)Nc1ccc(OC)cc1)CC(=O)Nc1cccc(S(=O)(=O)N2CCOCC2)c1 | -1% | -2%
O=C(C[C@H]1C[C@@H]2c3cc(NS(=O)(=O)c4ccccc4)ccc3O[C@@H]2[C@H](CO)O1)NC1CCCC1 | 6% | ?
Nc1[nH]c(C(=O)c2ccccc2)c(-c2cccc3ccccc23)c1C(=O)NCc1ccccc1 | -7% | -27%
O=C(Nc1cccc(C(F)(F)F)c1)c1ccc(-c2ccc(F)c(F)c2)c2ccoc12 | -2% | -19%
COc1ccccc1CCNC(=O)CSCC(=O)Nc1ccccc1F | 1% | -28%
COc1cc(NC(=O)CCc2c(C)noc2C)c(C(=O)O)cc1OC | 16% | -7%
CN(c1ccccc1N(C)S(=O)(=O)c1ccccc1)S(=O)(=O)c1ccccc1 | 16% | 11%
CCN1CCN(Cc2ccc(NC(=O)c3ccc(C)c(NC(=O)c4cncc(-c5cccs5)c4)c3)cc2C(F)(F)F)CC1 | 3% | -16%
Cc1n[nH]c(=S)n1/N=C/c1ccc(-c2ccc(Cl)cc2)o1 | 4% | -12%
CCCCN(C(=O)COc1ccc(F)cc1)c1c(N)n(CC(C)C)c(=O)[nH]c1=O | -4% | -3%
c1ccc(-c2nn3c(-c4ccccc4)nnc3o2)cc1 | -9% | 84%[activator]
O=c1c2ccccc2oc2cc(-c3ccc4[nH]ccc4c3)ccc12 | -25% | 52%[activator]
O=C(NCc1ccncc1)C1Cc2c(-c3ccc(Cl)cc3)ccnc2O1 (stereo not given) | -4% | -24%
Cc1ccc(F)c(S(=O)(=O)NC(=O)C2(C)CCN2C(=O)Cc2ccc(Cl)cc2Cl)c1 (stereo not given) | 1%[18.4 µM] | -9%

# Already shown: 6 of the compounds above.
mol | RE007 growth inh | 2A StopGo
Cc1n[nH]c(=S)n1/N=C/c1ccc(-c2ccc(Cl)cc2)o1 | 4% | -12%
CCCCN(C(=O)COc1ccc(F)cc1)c1c(N)n(CC(C)C)c(=O)[nH]c1=O | -4% | -3%
c1ccc(-c2nn3c(-c4ccccc4)nnc3o2)cc1 | -9% | 84%[activator]
O=c1c2ccccc2oc2cc(-c3ccc4[nH]ccc4c3)ccc12 | -25% | 52%[activator]
O=C(NCc1ccncc1)C1Cc2c(-c3ccc(Cl)cc3)ccnc2O1 (stereo not given) | -4% | -24%
Cc1ccc(F)c(S(=O)(=O)NC(=O)C2(C)CCN2C(=O)Cc2ccc(Cl)cc2Cl)c1 (stereo not given) | 1%[18.4 µM] | -9%

# (further entries)
mol | RE007 growth inh | 2A StopGo
CCCNC(=O)C1(C)CCCN(Cc2noc(-c3c(C)noc3C)n2)C1 (stereo not given) | -1% | -13%
O=C1c2ccccc2CCC12OC2c1ccc([N+](=O)[O-])cc1 (stereo not given) | 13% | -11%
CNc1ncnc2c1ncn2[C@H]1CN(Cc2ccc(Cl)cc2)C[C@@H](CO)O1 | 13% | ?
COc1cc2cc(C(=O)NCCc3c[nH]c4ccccc34)c(N)nc2cc1OC | -4% | ?
COc1ccc(CNC(=O)c2ccc3nc(C)c(N(C)Cc4ccc(NC(C)=O)cc4)n3c2)cc1 | -11% | ?
COC1=CC(=O)OC(c2cccc([N+](=O)[O-])c2)C1 (stereo not given) | -3% | -15%
O=C(Nc1ccc(F)c(Cl)c1)c1cc(C2CCCN(C(=O)C3CC3)C2)on1 (stereo not given) | -6% | -10%
COCCN1C(=O)COc2ccccc2C1C(=O)NC(C)(C)C (stereo not given) | 2% | -21%
CCCCCCCCN1C(=O)[C@H](CC(=O)N2CCOCC2)C[C@@]2(C(=O)OC)CC(C)(C)CC=C12 | -4% | -23%
O=C1CCC[C@@H]2Cc3nc4ccccc4cc3[C@@H]3CCN1[C@H]23 | -11% | -5%
CN(CCCn1ccc(N)nc1=O)Cc1ccco1 | 6% | -16%
COC(=O)C1=C(c2ccccc2)C[C@@H]2CC[C@H]1N2C(=O)NCCCOC(C)C | -1% | -1%
